Compound activity as filed in PubChem BioAssay.
YopH inh: blocks Yersinia enterocolitica YopH tyrosine phosphatase; inhibition, %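 (about 10 µM by stock and volumes)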; AID 898; fluorescence Ex485/Em525; 0.16% of 140,000 active;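 active means inhibition of 50% or more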;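 further: controls were vehicle for no effect and minimum signal wells for full effect; inactives centre near -20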
Arbovirus anti: arbovirus infection inhibition; arbovirus infection cell-based antiviral screen; inhibition, % at 10 µM; 0.37% of 200,000 active; AID 1251;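 active means inhibition from about 30%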;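 further: bluetongue infection of BSR cells; cell survival read as ATP light after 72 h; 0% = infected wells without compound and 100% = uninfected wells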
Mtb bLac sens: beta-lactam sensitization of Mtb H37Rv; M. tuberculosis H37Rv growth with meropenem, percent inhibition; hits of this screen are not shown here; inhibition, % at 25 µM; 0.27% of 330,000 active; AID 434955;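 active means about 74% or more and at least 40 points above the plate without the antibiotic, then above 30% in a dose series; inconclusive means first-round hits that could not be retested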;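 further: growth measured after seven days incubation then overnight dye step; 0% = bacteria only wells and 100% = bacteria with antibiotic; twin plates without the antibiotic show which effects depend on it; some results filed as inactive read as strong as hits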
Mtb growth: M. tuberculosis H37Rv growth inhibitors, H37Rv strain (AID 1626). 0.95% of 220,000 active. M. tuberculosis H37Rv growth inhibition; higher % means a stronger effect. inhibition, % at 10 µM, or IC50 in µM where a hit was titrated;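 active means confirmed in a dose series; inconclusive means inhibition above 80% but not taken into the dose series; inactive means below 80% or under 30% at every dose of the series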;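 further: bacteria incubated seven days before Alamar blue readout; 0% = bacteria only wells and 100% = bacteria with antibiotic wells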
RecA intein inh: inhibitors of M. tuberculosis RecA intein splicing. 0.75% of 290,000 active. AID 2221. inhibition, %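 (about 9 µM by stock and volumes)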. cell-free RecA intein splicing, fluorescence. P9WHJ3; in the data active means inhibition above about 30%; inconclusive means no clear call, values can overlap the other calls;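 further: 0% = vehicle wells and 100% = reference inhibitor control wells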
Target sequence (P9WHJ3 whole entry, looked up): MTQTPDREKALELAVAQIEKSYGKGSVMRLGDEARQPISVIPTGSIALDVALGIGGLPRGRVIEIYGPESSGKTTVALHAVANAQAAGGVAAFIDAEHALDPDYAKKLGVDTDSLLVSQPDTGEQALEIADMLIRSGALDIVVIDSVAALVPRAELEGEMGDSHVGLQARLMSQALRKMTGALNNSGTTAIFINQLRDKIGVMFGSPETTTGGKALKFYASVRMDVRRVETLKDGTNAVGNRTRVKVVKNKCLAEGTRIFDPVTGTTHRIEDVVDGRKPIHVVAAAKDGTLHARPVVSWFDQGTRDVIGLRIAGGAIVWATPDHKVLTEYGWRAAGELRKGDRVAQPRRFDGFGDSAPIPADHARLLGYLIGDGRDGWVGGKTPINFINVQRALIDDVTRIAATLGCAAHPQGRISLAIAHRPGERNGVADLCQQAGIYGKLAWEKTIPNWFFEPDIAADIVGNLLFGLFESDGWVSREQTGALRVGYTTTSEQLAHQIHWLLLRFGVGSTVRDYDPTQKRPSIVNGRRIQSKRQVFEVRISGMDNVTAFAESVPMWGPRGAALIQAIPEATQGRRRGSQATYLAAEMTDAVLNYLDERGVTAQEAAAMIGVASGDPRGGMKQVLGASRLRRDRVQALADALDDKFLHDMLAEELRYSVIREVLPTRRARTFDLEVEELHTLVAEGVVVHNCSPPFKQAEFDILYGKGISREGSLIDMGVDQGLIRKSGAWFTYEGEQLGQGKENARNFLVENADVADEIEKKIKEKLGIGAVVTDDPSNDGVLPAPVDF
Arbovirus anti repeat: further read-out of Arbovirus anti, marked with its call; inhibition, %; measured here: 10K subset replicate screen; many hits read low in the repeat;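 first of two repeat runs on a subset; 0% = infected and 100% = uninfected wells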
Active calls of the source: *; ? = inconclusive; nt = no result given. A portion of the library. The share of hits here may be higher or lower than overall.

SMILES	YopH inh	Arbovirus anti	Mtb bLac sens	Mtb growth	RecA intein inh	others
Cc1cc2oc(=O)cc(CN3CCN(S(=O)(=O)/C=C/c4ccccc4)CC3)c2cc1C	-20	4	3	11%	0.0
Cc1cc(NC(=O)CSc2nc3c(c(=O)n(C)c(=O)n3C)n2C(C)C)no1	-31	2	-3	1%	2.6
CS(=O)(=O)c1ccc2nc(NC(=O)c3cc4ccccc4o3)sc2c1	-7	-4	-2	3%	-3.2
O=C(C1CCC(=O)N(C2CC2)C1)N1CCN(c2ccccc2Cl)CC1 (centres undefined)	nt	nt	0	nt	0.4
CCc1ccccc1NC(=S)NC1CC2CCC(C1)N2Cc1ccc(F)cc1 (centres undefined)	nt	16	4	-5%	5.3
COc1cc(/C=C/c2cc(C(=O)O)c3ccccc3n2)cc(OC)c1O	nt	-1	3	1%	-4.9
CC1CCN(Cc2nc(-c3ccccc3)no2)CC1	-30	2	-4	-9%	-1.0
CSc1ccc(S(=O)(=O)NCc2ccccc2C)cc1	nt	7	3	-5%	1.4
CC(Oc1ccccc1)C(=O)Nc1cccc(NC(=O)c2ccco2)c1 (centres undefined)	nt	nt	-6	5%	-2.4
O=C(Nc1cccc(C(F)(F)F)c1)OCc1ccncc1	nt	nt	1	nt	-1.2
CCOC(=O)c1ccccc1NC(=O)Cn1cnc2c(cnn2C(C)(C)C)c1=O	-43	4	7	0%	0.4
CCc1nc2nc(C)c(NS(=O)(=O)c3ccc(F)cc3)c(=O)n2[nH]1	nt	nt	-4	nt	-0.1
O=[N+]([O-])c1ccccc1S(=O)(=O)N(CC(O)CN1CCCCC1)c1ccccc1 (centres undefined)	nt	nt	-10	nt	0.0
O=S(=O)(NCC1CC1)c1cccc(S(=O)(=O)N2CCCC2)c1	-41	0	-4	-5%	-2.6
COc1ccc(NC2CCCN(C(=O)C3=NN(C)C(=O)CC3)C2)cc1OC (centres undefined)	nt	nt	3	nt	-3.7
CC(NC(=O)Nc1cccc([N+](=O)[O-])c1)c1ccc2c(c1)OCO2 (centres undefined)	nt	nt	0	nt	2.6
COc1cccc(NC(=O)c2ccc3c(c2)C(=O)N(CC2CCCO2)C3=O)c1 (centres undefined)	nt	nt	-2	nt	-1.5
CCN(CC)S(=O)(=O)c1cccc(N=Nc2sc(N)nc2C)c1	nt	nt	1	nt	5.3
CC1(C)Cc2c(cnn2-c2ccc(F)cc2)C(NC(=O)CCN2CCCCO2)C1 (centres undefined)	nt	nt	?	nt	1.4
Cc1ccc(CNC(=O)CCC(=O)N2CC(C)Sc3ccccc32)cc1 (centres undefined)	nt	nt	3	nt	2.5
Cc1ccccc1N(C)C(=O)C1CCCN(c2ncnc3c2nc2n3CCCCC2)C1 (centres undefined)	nt	nt	-4	nt	-1.3
COc1ccc(CNC(=O)[C@@H]2CCCN2C(=O)[C@@H]2Cc3ccccc3CN2C(=O)OC(C)(C)C)cc1	nt	nt	0	nt	0.3
CC(C)Oc1ccc(C(=O)Nc2nnc(SCC(=O)N3CCOCC3)s2)cc1	-17	3	1	nt	-3.7
C/C(CC(=O)Nc1ccc(N(C)C)cc1)=N\NC(=O)c1ccc(F)cc1	nt	nt	17	nt	1.9
Cc1ccc(OCc2nnc(SCC(=O)Nc3cccc4ccccc34)n2-c2ccccc2)cc1	-20	-4	-5	nt	-0.3
SMILES	YopH inh	Arbovirus anti	Mtb bLac sens	Mtb growth	RecA intein inh	others
O=C(Nc1cccc(Cl)c1)Nc1ccccc1C(=O)NCc1ccco1	-22	2	24	11%	16
O=C(O)c1nn(Cc2ncc(-c3cccc(Cl)c3)o2)c(=O)c2ccccc12	nt	nt	2	nt	4.6
CCC(C)(C)C1CCc2c(sc(N)c2C(N)=O)C1 (centres undefined)	-10	16	0	4%	0.0
O=C(C1CC1)N1CCc2cc(S(=O)(=O)NCc3ccccc3)ccc21	nt	nt	-8	nt	1.9
Cc1ccc(NC(=O)Cc2nn(C)c(=O)c3ccccc23)cc1F	-8	4	6	-6%	-2.1
O=C(CSc1nnnn1C1CCCCC1)Nc1ccc(F)cc1	nt	0	2	5%	0.5
Cc1ccnc(NS(=O)(=O)c2ccc(NS(=O)(=O)Cc3ccccc3)cc2)n1	-29	3	3	-15%	0.2
CCc1ccc(NC2=CC(=O)CC(c3ccco3)C2)cc1 (centres undefined)	-37	-16	46	-6%	1.0
COc1ccccc1N(C(=O)c1csnn1)C(C(=O)NC1CCCC1)c1ccccc1 (centres undefined)	nt	nt	4	nt	-0.6
COc1ccc(C(=O)c2cn[nH]c2-c2cc(Cl)ccc2O)cc1	-18	17	5	-7%	nt	Arbovirus anti repeat=6
COc1ccccc1Nc1nc(N)nc(-c2cc3ccccc3o2)n1	5	0	10	2%	0.6
CCOC(=O)N1CCN(C(=O)/C(=C\c2ccc(SC)cc2)NC(=O)c2ccccc2)CC1	nt	nt	0	-8%	nt
Cc1ccc(-c2nnc(Nc3ccccc3)c3ccccc23)cc1S(=O)(=O)NCC1CCCO1 (centres undefined)	-46	-20	1	0%	-0.5
Cn1c(SCC(=O)c2ccc(F)cc2)ncc(C(=O)Nc2ccccc2)c1=O	nt	nt	-4	nt	3.4
CCC(=O)Nc1nnc(S(=O)(=O)N(CC(C)C)c2ccccc2)s1	nt	nt	-3	nt	-2.3
CCOC(=O)NC(=O)c1cn(Nc2ncc(C(F)(F)F)cc2Cl)c(=O)[nH]c1=O	nt	nt	2	-6%	-2.2
O=C(c1ccco1)N1CCN(C(=O)C23CC4CC(CC(C4)C2)C3)CC1	nt	nt	-3	nt	-3.3
Cc1cccc(N/C=C/C(=C(C#N)C#N)N(C)C)c1	-32	4	21	8%	-4.3
COc1cc(-c2noc(C)c2/C=C/c2ccc(OC(C)=O)cc2)cc(OC)c1OC	nt	nt	19	nt	-2.2
CC(=O)Nc1cccc(C(=O)OCC(=O)c2ccc(S(=O)(=O)N3CCCCC3)cc2)c1	nt	nt	-2	nt	-1.2
CCOc1cc(S(=O)(=O)N(CC)CC)c(OCC)cc1-n1cnnn1	-5	12	8	-5%	-1.3
O=C(OCCCCN1C(=O)c2ccccc2C1=O)c1ccc(S(=O)(=O)N2CCCC2)cc1	-25	8	-14	4%	-1.8	Arbovirus anti repeat=3
COC(=O)c1ccc(Sc2ccc(F)cc2)c(N)c1	-16	1	-7	4%	2.6
CCOc1ccc(S(=O)(=O)N2CCC(C(=O)N3CCN(c4ccccc4)CC3)CC2)cc1	nt	nt	-6	nt	1.3
COc1cc(NC(=O)Cc2ccc(F)cc2)cc(OC)c1OC	nt	-3	-2	-2%	-1.3

A portion taken from the entries so far, for reference:
SMILES	YopH inh	Arbovirus anti	Mtb bLac sens	Mtb growth	RecA intein inh	others
CCOc1ccc(S(=O)(=O)N2CCC(C(=O)N3CCN(c4ccccc4)CC3)CC2)cc1	nt	nt	-6	nt	1.3
COc1cc(NC(=O)Cc2ccc(F)cc2)cc(OC)c1OC	nt	-3	-2	-2%	-1.3

Next records follow.
SMILES	YopH inh	Arbovirus anti	Mtb bLac sens	Mtb growth	RecA intein inh	others
CC(C)(C)OC(=O)N1CCC(NC(=O)c2[nH]cnc2C(=O)N[C@@H](Cc2ccccc2)C(=O)OCc2ccccc2)CC1	nt	-22	-2	-4%	3.6
CCOC(=O)c1c(C)[nH]c(C(C)=O)c1C	-34	6	8	0%	-2.3
Cn1nc(-c2ccc(C(=O)NCCO)cc2)c2ccccc2c1=O	nt	nt	-6	0%	nt
CCOCCSc1nnc2nc(C)cc(C)n12	-7	1	-3	-7%	-2.4
CCOc1ccc(NC(=O)Nc2ccc3c(c2)nnn3C)cc1	-22	1	-1	0%	1.1
CC(=O)Nc1sc(NC(=O)c2ccco2)nc1-c1cccs1	nt	nt	1	nt	-2.1
Cc1cccc(NC(=O)CSc2nnc(C)n2Cc2ccccc2)c1	-34	2	-5	-1%	0.4
O=C(O)c1ccccc1CSc1nc2ccccc2n1Cc1ccccc1C(=O)O	nt	8	-21	-4%	-2.8
COc1ccccc1NC(=O)CSc1nccn1Cc1ccc(F)cc1	nt	nt	-4	nt	3.0
CCOC(=O)c1oc2ccccc2c1NC(=O)c1ccccc1OC	-34	-16	?	14%	1.1
CCCCCCSc1ccc([C@@H]2[C@@H]3C(=O)N(C)C(=O)[C@@H]3[C@]3(C(=O)OC)CCCCN23)cc1OC	nt	nt	6	nt	2.2
Cc1noc(NC(=O)c2ccc(Cl)c(Cl)c2)c1Cl	nt	24	-5	6%	0.9
CCc1cc(=O)[nH]c(SCc2ccc(C)cc2)n1	nt	9	-2	4%	-0.7
CC(C)(C)NC(=O)C1CC(=O)OC1(C)C (centres undefined)	-12	18	-7	0%	3.9
CC(NC(=O)c1ccc(F)cc1Cl)C1CC2CCC1C2 (centres undefined)	nt	nt	27	nt	1.5
C=C(C)c1cccc(C(C)(C)NC(=O)N2CCCC2)c1	-14	-5	-4	-2%	-2.2
Cc1ccc(S(=O)(=O)N(CC(O)CN2CCCCC2)c2ccccc2)cc1 (centres undefined)	-11	0	6	-4%	0.1	Arbovirus anti repeat=-4
Cc1ccc(C)c(CN2CCNC2=O)c1	2	-1	-8	7%	-2.5
C=CCn1c(COc2ccccc2)nnc1SCc1ccc(C#N)cc1	-39	-2	-4	5%	2.4
CCOCCCn1c(SCc2ccccc2)nnc1-c1ccncc1	nt	nt	-1	nt	0.5
O=C(C1CCN(S(=O)(=O)c2ccccc2)CC1)N1CCC2(CC1)OCCO2	3	3	1	-9%	-0.4
C1=Nc2ccccc2CN1c1ccccc1	-19	-3	-2	1%	-1.8
COc1ccc(CN2C(=O)NC(=O)/C(=C\c3ccco3)C2=O)cc1	nt	13	-4	-6%	-0.4
Cc1nc2scc(-c3ccccc3)c2c(=O)n1N	-46	-10	-9	0%	-0.6
Cc1nn(-c2ccc(F)cc2)c(Cl)c1/C=N/NC(=O)c1cccs1	-23	-11	9	2%	-3.3

Entries shown so far containing a cyano group (2):
SMILES	YopH inh	Arbovirus anti	Mtb bLac sens	Mtb growth	RecA intein inh	others
Cc1cccc(N/C=C/C(=C(C#N)C#N)N(C)C)c1	-32	4	21	8%	-4.3
C=CCn1c(COc2ccccc2)nnc1SCc1ccc(C#N)cc1	-39	-2	-4	5%	2.4

Next compounds follow:
SMILES	YopH inh	Arbovirus anti	Mtb bLac sens	Mtb growth	RecA intein inh	others
CN(C)S(=O)(=O)N1CCN(S(=O)(=O)c2ccc3ccccc3c2)CC1	-16	-21	6	-5%	-0.1
Cn1ccnc1SCC(=O)Nc1ccc(Oc2ccccc2)cc1	-20	-11	-5	4%	3.2
COc1ccc(CCN2C(=O)CC(NNC(=O)c3ccccc3Br)C2=O)cc1OC (centres undefined)	-1	3	6	-3%	0.8
O=C1C(Cc2ccc(O)cc2)NC(=S)N1C1CCCCC1 (centres undefined)	nt	nt	6	9%	3.1
Fc1ccc(OCCCCCN2CCCC2)cc1	-17	21	-4	-4%	-1.0
COc1ccc(N2C(=O)NC(=O)/C(=C/c3ccc4c(c3)Cc3ccccc3-4)C2=O)cc1	nt	-5	0	9%	nt
C=C1c2cc(OC)ccc2NC(=O)N1CC	-31	-2	-7	2%	-9.4
Cc1ccc(N(CN2C(=O)C3CC=CCC3C2=O)C(=O)c2ccco2)cc1Cl (centres undefined)	-35	6	6	-8%	2.3
CC(=O)N1CCc2cc(S(=O)(=O)NCCC(=O)Nc3cccc(C)c3C)ccc21	-32	5	-3	-5%	-1.1
COc1cc(OC)c2c(-c3ccccc3)cc(=O)oc2c1C(CCN1CCN(c2ccccc2)CC1)c1ccc(N(C)C)cc1 (centres undefined)	nt	nt	0	14%	4.9
CCn1c(SCCC(=O)Nc2ccccc2)nnc1-c1ccc(OC)cc1	-50	4	2	3%	0.7
COc1ccc(/C=C2\CCCc3c2nc2ccccc2c3C(=O)O)cc1OC	nt	nt	-8	1%	-39
Cc1cc(NS(=O)(=O)c2c(C)c(C)cc(C)c2C)no1	nt	nt	-6	nt	0.2
CN1C(=O)C2(c3ccccc31)C1CCCC=C1C(C#N)=C(N)C2(C#N)C#N (centres undefined)	-8	2	8	-12%	nt
O=C(NC(O)C(=O)c1ccccc1)c1ccc(F)cc1 (centres undefined)	nt	nt	6	nt	-3.2
CN(C)/C=C(\C(=O)c1ccc(F)cc1F)c1nnnn1-c1ccccc1	-16	10	1	0%	-1.7
NC(=O)C1(N2CCCCC2)CCN(C(=O)CSc2nc3ccccc3[nH]2)CC1	38	10	-11	16%	nt
Cc1ccc(N2C(=O)C3ON(c4ccccc4)C(c4ccncc4)C3C2=O)c(C)c1 (centres undefined)	-37	2	-5	0%	1.6
CCOc1ccc2[nH]c(C)c(CN(C)C)c(=O)c2c1	-35	2	-3	2%	0.7	Arbovirus anti repeat=5
Cc1cccc(N(CC(=O)NCc2ccccc2)C(=O)CCC(=O)Nc2nccs2)c1	nt	nt	5	nt	-1.1
O=C(NCC1CCCO1)c1ccc(CS(=O)(=O)c2ccc(Br)cc2)o1 (centres undefined)	-38	4	-5	2%	-0.4	Arbovirus anti repeat=3
